High-throughput results as filed in PubChem.
P. yoelii liver – exo-erythrocytic parasite development inhibition – imaging, Malaria Box, P. yoelii, HepG2-A16-CD81EGFP, dose response (AID 602156); calls after a first round at 10 µM; hits with a dose series show IC50 in µM; P. yoelii liver stage in HepG2-A16-CD81EGFP, imaging; first-round cut-off not given here; actives 4.8% (n = 5,700); in the data active = a potency from the dose series;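 also: infected cells exposed to compound for 48 hours before fixation; stained parasite area by imaging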
Calls only; i = inactive.

SMILES	P. yoelii liver
CCCCN(CCCC)CC(O)c1cc(Cl)cc2c1-c1ccc(Cl)cc1/C2=C/c1ccc(Cl)cc1 (stereo not given)	i
COc1cc(C(=O)NC(c2ccccc2Cl)c2cc(Cl)c3cccnc3c2O)cc(OC)c1OC (stereo not given)	i
O=C(NCCN1CCOCC1)c1ccc(Cl)cc1	i

Grouped by structure, the compounds so far with a carbonyl joined to an NH by a bond outside any ring
SMILES	P. yoelii liver
COc1cc(C(=O)NC(c2ccccc2Cl)c2cc(Cl)c3cccnc3c2O)cc(OC)c1OC (stereo not given)	i
O=C(NCCN1CCOCC1)c1ccc(Cl)cc1	i

These rows are one share of the data; the hit share may differ from the screen's.
